Screening results (PubChem BioAssay)
TRPML1 ag = qHTS for Agonists of the Human Mucolipin Transient Receptor Potential 1 (TRPML1) | Mucolipin-1 (Homo sapiens), Q9GZU1 | TRPML1-expressing cells, Ca2+ dye fluorescence, FDSS; host cell line not named in the record; reference of the full effect not given here | activation, % (no concentration beside the values) | hit rate 0.12% among 410,000; in the data active = activation above about 50%; inconclusive = about 30% to 50%; inactive = below about 30%; note: 0% is about no effect; the text of the record puts the active cut at 80%
Target sequence (Q9GZU1 whole entry, looked up): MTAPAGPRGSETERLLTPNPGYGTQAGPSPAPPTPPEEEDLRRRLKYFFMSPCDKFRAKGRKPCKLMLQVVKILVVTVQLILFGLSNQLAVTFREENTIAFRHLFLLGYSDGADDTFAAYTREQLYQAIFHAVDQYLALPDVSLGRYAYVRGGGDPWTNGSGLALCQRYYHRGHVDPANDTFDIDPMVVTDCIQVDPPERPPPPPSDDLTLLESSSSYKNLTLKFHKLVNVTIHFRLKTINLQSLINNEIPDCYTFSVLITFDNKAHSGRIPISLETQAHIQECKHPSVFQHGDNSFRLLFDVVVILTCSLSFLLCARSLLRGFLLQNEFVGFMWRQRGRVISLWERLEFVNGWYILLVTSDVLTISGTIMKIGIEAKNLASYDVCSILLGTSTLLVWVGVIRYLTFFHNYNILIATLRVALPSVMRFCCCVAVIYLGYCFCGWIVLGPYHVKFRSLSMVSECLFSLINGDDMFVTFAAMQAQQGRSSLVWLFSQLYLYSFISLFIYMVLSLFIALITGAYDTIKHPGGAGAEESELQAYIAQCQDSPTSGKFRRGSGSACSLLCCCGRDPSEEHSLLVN
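In this qHTS format, compounds were pin-transferred onto Ca8-dye-loaded TRPML1-DL cells induced with Tet overnight, and intracellular Ca2+ fluorescence was recorded kinetically for 110 s after a 10 s baseline. A subsequent 4uM final 54-4 (EC80) addition followed by a second 110 s read served as the antagonist phase.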
D2 potentiator = Beta-Arrestin HTS for Positive Allosteric Modulators of the Human D2 Dopamine Receptor: Potentiators | D(2) dopamine receptor (Homo sapiens), P14416 | DiscoveRx D2 beta-arrestin cells, luminescence, 90 min; 100% = 57 uM dopamine signal | potentiation, % (test concentration not listed) | hit rate 0.23% among 360,000 | AID 624464, 2012; active = potentiation of 50% or more; inconclusive = 30% to 50%; inactive = 30% or less;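 note: compound concentration not given in the record; tested on top of an EC20 dose of dopamine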
Target sequence (P14416 whole entry, looked up): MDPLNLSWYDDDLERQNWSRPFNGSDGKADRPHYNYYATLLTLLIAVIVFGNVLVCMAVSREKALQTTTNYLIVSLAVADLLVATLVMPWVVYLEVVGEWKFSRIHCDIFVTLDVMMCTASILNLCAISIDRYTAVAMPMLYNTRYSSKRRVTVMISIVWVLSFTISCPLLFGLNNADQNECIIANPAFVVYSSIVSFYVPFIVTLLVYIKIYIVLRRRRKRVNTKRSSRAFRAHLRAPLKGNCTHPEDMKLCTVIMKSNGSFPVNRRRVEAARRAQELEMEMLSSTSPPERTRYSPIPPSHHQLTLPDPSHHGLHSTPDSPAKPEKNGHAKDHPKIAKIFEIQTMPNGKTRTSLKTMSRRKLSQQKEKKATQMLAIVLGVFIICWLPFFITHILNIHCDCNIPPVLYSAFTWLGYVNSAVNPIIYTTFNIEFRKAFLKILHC
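PathHunter beta-arrestin assay in DiscoveRx D2 cells. Compounds were added with an EC20 of dopamine (50 nM final) for 90 min at 37 deg C. Luminescence was read 1 h after detection reagent, with 57 uM dopamine as the EC100 control.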
CtBP-E1A inh = qHTS Assay for Inhibitors of the CtBP/E1A Interaction; CtBP / adenovirus E1A interaction (AlphaScreen); AlphaScreen GST-E1A/His-CtBP binding, 1536-well; active compounds read low; control for the full effect not named in the record; activity change, % (no concentration beside the values); hit rate 0.49% among 340,000; AID 651724, 2012; in the data active means activity change below about -65%; inconclusive means about -30% to -65%; inactive means above about -30%; note: % is set by controls: 0 for no effect and ±100 for the full control effect
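Protein mix (5X: 125 nM each GST-E1A, His-CtBP) was incubated with pinned compound 2 h at 37 deg C in dark, in 50 mM Tris pH 8.0 buffer with 300 mM NaCl. Glutathione donor and nickel acceptor beads followed; AlphaScreen signal read after 1 h.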
TRPV1 potentiator = HTS Assay for Compounds that Act as Potentiators of the Vanilloid Receptor 1 | TRPV1-expressing cells, Fluo-8 calcium influx, capsaicin EC20 potentiation; host cell line not named in the record; control for the full effect not named in the record | potentiation, % at 8.33 µM | hit rate 0.02% among 320,000 | AID 540277, 2011; active means potentiation above 80%; inconclusive means 30% to 80%; inactive means below 30%; note: 0% is about no effect
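Cells expressing TRPV1 were dye-loaded with Fluo-8 and read kinetically: 10 s baseline, 3 min after compound (agonist portion), then 2 min after EC20 capsaicin (allosteric enhancer portion). Calcium-bound dye fluorescence at 480/520 nm.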
TRPML1 blocker = qHTS for Inhibitors of the Human Mucolipin Transient Receptor Potential 1 (TRPML1); Mucolipin-1 (Homo sapiens), Q9GZU1; TRPML1-inducible cells, Ca2+ dye fluorescence, FDSS; active compounds read low; inhibition of EC80 agonist-evoked calcium signal; activity change, negative = inhibition, % (concentration not given with the values); hit rate 0.02% among 390,000; AID 624415, 2012; in the data active means activity change below about -50%; inconclusive means about -30% to -50%; inactive means above about -30%;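 note: stimulus is agonist 54-4 at its EC80 concentration; % is set by controls: 0 for no effect and ±100 for the full control effect; the text of the record puts the active cut at -80%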
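Calcium fluorescence in TRPML1-DL cells induced overnight with Tet: a 110 s read after compound pin addition, then a 110 s antagonist read after challenge with 54-4 at 4 uM final (EC80).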
Six1-Eya2 inh = qHTS Assay for Inhibitors of the Six1/Eya2 Interaction; AlphaScreen GST-Six1/His-Eya2 binding, biochemical; active compounds read low; control for the full effect not named in the record; activity change, % (test concentration not listed); hit rate 0.56% among 360,000; in the data active = activity change below about -65%; inconclusive = about -30% to -65%; inactive = above about -30%; note: % is set by controls: 0 for no effect and ±100 for the full control effect
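AlphaScreen with GST-Six1 and His-Eya2 (5X mix: 250 nM and 500 nM), glutathione donor and nickel acceptor beads; buffer 50 mM Tris pH 8.0, 300 mM NaCl, 1 mM TCEP; 1 h at 37 C in the dark.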
* marks the source's active call; other numbers are inactive results; ? = inconclusive; . = not tested or not shown; & = joins results of further samples. Hits appear at their usual frequency (roughly 0.95% active in at least one column).

entry | molecule | TRPML1 ag | D2 potentiator | CtBP-E1A inh | TRPV1 potentiator | TRPML1 blocker | Six1-Eya2 inh
1 | CCOc1ccc(CN(C)CC(=O)Nc2ccccc2C(=O)NC2CC2)cc1 | 1.6 | -14 | 4 | -10 | 45 | 0
2 | O=C(NNC(=O)c1cccc2ccccc12)c1ccco1 | -0.1 | -5 | 12 | 21 | -8 | 1
3 | Cc1noc(C)c1COC(=O)c1cccnc1Cl | -1.0 | 5 | -7 | 1 | 11 | 8
4 | Cc1csc(NC(=O)CSc2nnc(-c3ccoc3C)n2Cc2ccco2)n1 | 3.1 | -9 | -7 | 6 | -15 | -8
5 | CCN(CC(=O)Nc1ccc(S(=O)(=O)N2CCCC2)cc1)CC(=O)Nc1ccccc1C(F)(F)F | -0.5 | -1 | 6 | . | 14 | -2
6 | COc1cc(CNn2cn[nH]c2=S)cc(Cl)c1OCc1ccc(F)cc1 | 1.7 | -16 | -2 | -11 | 0 | -10
7 | O=C(C[C@H]1C(=O)N(Cc2cccnc2)C[C@@H]1Cc1ccccc1)Nc1ccccc1 | 0.0 | 2 | 0 | . | -4 | 3
8 | COc1cc(/C=C(/C#N)c2ccccc2F)ccc1OCc1ccccc1 | 2.0 | -4 | 24 | 14 | 29 | 35
9 | Cc1noc(C)c1S(=O)(=O)N(CC(=O)NCc1ccccc1)c1ccc(C(C)C)cc1 | 3.1&-0.3 | -7 | . | -7 | 17&-25 | 7
10 | Clc1ccc(COc2ccccc2CNCc2cccnc2)cc1 | 0.6 | -20 | -5 | 7 | -3 | -1
11 | COc1ccc(C)cc1C(=O)CCC(=O)Nc1ccccc1N1CCOCC1 | -1.1 | -6 | 4 | -40 | -3 | 4
12 | Cc1ccc(S(=O)(=O)NCC(=O)OCC(=O)c2cccs2)cc1 | -0.2 | -1 | 12 | -6 | -2 | 5
13 | Cc1c(N=N/C(C(=O)Nc2ccccc2)=C(/O)c2ccccc2)c(=O)n(-c2ccccc2)n1C | 12 | -6 | -6 | -1 | 7 | 12
14 | Cc1ccc(Sc2cc(C(F)(F)F)nc(N(C)C)n2)cc1 | -0.4 | -1 | 1 | -9 | -7 | 2
15 | COc1ccc(/C=N/Nc2ncnc3c2[nH]c2ccccc23)c(OC)c1OC | 1.5 | -3 | 6 | 10 | -3 | 6
16 | Cc1sc(NC(=O)C2CSC3(C)CCC(=O)N23)nc1-c1ccccc1 (centres undefined) | 0.1 | 12 | -3 | -5 | 1 | -16

Screen by screen, quoted from above.
TRPML1 ag, compounds 11 to 16 → -1.1, -0.2, 12, -0.4, 1.5, 0.1
D2 potentiator, compounds 11 to 16 → -6, -1, -6, -1, -3, 12

Further structures follow:
entry | molecule | TRPML1 ag | D2 potentiator | CtBP-E1A inh | TRPV1 potentiator | TRPML1 blocker | Six1-Eya2 inh
17 | Cc1ccccc1OCC(=O)NCCN(C)C | 0.2 | -22 | 4 | ? | 41 | -7
18 | COc1ccc(CCNC(=O)CC(c2ccccc2)c2cc(C)ccc2O)cc1OC (centres undefined) | . | 18 | -3 | 11 | . | -4
19 | CCn1c(SCC(=O)Nc2nccs2)nnc1-c1ccncc1 | 0.3 | -12 | 1 | 2 | -11 | 18
20 | C=CCNc1nc(Cl)nc(Nc2ccc(OC)cc2)n1 | 2.9 | -8 | -10 | . | 16 | -9
21 | CCc1ccccc1NC(=O)CN1CCN(CC(=O)NCc2ccc(Cl)cc2)CC1 | 0.1 | 4 | . | -1 | 6 | 4
22 | CCN(CC)S(=O)(=O)c1ccc(C(=O)NNC2=NS(=O)(=O)c3ccccc32)cc1 | 2.5 | -5 | 1 | 9 | -14 | 8
23 | CCOC(=O)CN1C(=O)N[C@@H](c2cccc(F)c2)C(C(C)=O)=C1C | 0.6 | -2 | 0 | . | -4 | 0
24 | Cc1cnc2cc(Cl)c(Cl)cc2n1 | -0.1 | 5 | 14 | 7 | 3 | 0
25 | COc1ccc(S(=O)(=O)N(C)CC(=O)NCCN2CCOCC2)cc1C | -0.1 | -5 | -5 | 14 | 5 | -3
26 | COc1c(O)c(O)c2oc(-c3ccccc3)cc(=O)c2c1OC | . | ? | -13 | ? | . | -15
27 | CCn1c(CNC(=O)c2ccccc2)nnc1SCC(=O)N1CCN(c2ccccc2)CC1 | -0.3 | 8 | 4 | -10 | -14 | 1
28 | COc1ccc(-c2nn(-c3ccccc3)cc2C(=O)Nc2nc(CC(C)=O)ns2)cc1 | 1.7 | -3 | -9 | -6 | 1 | 0
29 | Cc1cc(N2CCN(S(=O)(=O)c3ccc(Cl)c(Cl)c3)CC2)c2ccccc2n1 | 2.6 | -13 | -12 | 2 | 9 | -1
30 | O=c1nc(Nc2ccc([N+](=O)[O-])cc2)[nH]c(=O)[nH]1 | 0.1 | -2 | 7 | 13 | -5 | 10
31 | O=C(NCc1ccccn1)c1ccc(OC2CCN(Cc3ccc(Cl)s3)CC2)cc1 | -1.3 | -25 | 16 | -18 | 0 | -4
32 | O=C(NC1CC2CCCC(C1)N2C(=O)Nc1cccc(F)c1)C1CC1 (centres undefined) | 2.0 | -4 | -3 | -4 | -5 | 3

Quoted from the listing:
Value for `O=C(NC1CC2CCCC(C1)N2C(=O)Nc1cccc(F)c1)C1CC1` (centres undefined) in CtBP-E1A inh: -3
Value for `O=c1nc(Nc2ccc([N+](=O)[O-])cc2)[nH]c(=O)[nH]1` in TRPML1 ag: 0.1
Value for `COc1c(O)c(O)c2oc(-c3ccccc3)cc(=O)c2c1OC` in CtBP-E1A inh: -13
Value for `COc1ccc(-c2nn(-c3ccccc3)cc2C(=O)Nc2nc(CC(C)=O)ns2)cc1` in TRPV1 potentiator: -6
Value for `Cc1cc(N2CCN(S(=O)(=O)c3ccc(Cl)c(Cl)c3)CC2)c2ccccc2n1` in TRPV1 potentiator: 2

(more compounds)
entry | molecule | TRPML1 ag | D2 potentiator | CtBP-E1A inh | TRPV1 potentiator | TRPML1 blocker | Six1-Eya2 inh
33 | CC(C)(C)NC(=O)c1cccc(NC(=O)CSc2ccc(Cl)cc2)c1 | 2.4 | -18 | -6 | 6 | 16 | 6
34 | C/C(=N\NC(=O)c1ccc(CSc2nncn2C)cc1)c1ccc(Cl)cc1 | -0.7 | -10 | 1 | 2 | 3 | 1
35 | Cc1ccc(-n2cc(CN(C)CCc3cn[nH]c3)c(-c3cccc(C)c3)n2)cc1 | 0.8 | -5 | 5 | -2 | 6 | 14
36 | O=C(CSc1nc(O)c(C2CCCCC2)c(=O)[nH]1)N1CCOCC1 | -0.1 | -10 | 0 | 2 | 19 | 2
37 | CCOC(=O)c1cccc(OCC(O)CNCCOc2ccccc2F)c1 (centres undefined) | -0.2 | 4 | 9 | 2 | 13 | 1
38 | Cc1ccc(NC(=O)C2OCCc3ccccc32)cc1 (centres undefined) | 1.4 | -10 | 8 | -5 | 6 | 7
39 | C[C@@H](C(=O)N1CCN(C(=O)OC(C)(C)C)CC1)n1cc(CCC(=O)O)nn1 | -0.3 | -3 | -18 | -12 | 0 | 2
40 | CC1(C#CC[N+]2(C)CCCCC2)CCC2C(O1)c1ccccc1OC2(C)C (centres undefined) | -0.3 | -4 | . | -5 | -11 | -1
41 | O=C(CNC(=O)COc1ccccc1)NCCc1ccccn1 | 0.1 | -6 | -8 | -2 | 6 | -2
42 | COc1ccccc1CNC(=O)COC(=O)COc1ccccc1F | 1.2 | -1 | 3 | -1 | -21 | 0
43 | CC(=O)c1ccc(Nc2cc(C)nc3ccccc23)cc1 | 1.8 | -9 | 1 | -11 | 43 | -3
44 | O=C(Nc1cccc(C(F)(F)F)c1)C1CCCN(c2ncccn2)C1 (centres undefined) | 1.2 | -10 | 7 | -13 | 26 | 2
45 | COc1ccc(C(CNC(=O)C2CCN(S(=O)(=O)c3ccc(F)cc3)CC2)N(C)C)cc1 (centres undefined) | -0.9 | -14 | 7 | -3 | 10 | -5
46 | COc1ccc(N(CN2C(=O)C3CC=CCC3C2=O)C(=O)c2ccco2)cc1 (centres undefined) | -0.1 | -16 | 5 | -8 | -5 | -5
47 | COc1ccc(-c2cn(-c3ccc(C)cc3)c(=O)n2CC(=O)Nc2ccc(OC)c(OC)c2)cc1 | 1.9 | 1 | -28 | 6 | 47 | -22
48 | COc1ccc2nc(NCc3cccnc3)sc2c1 | -0.6 | -11 | . | 20 | 40 | -6

Filtered by structure: the compounds so far containing a tert-butyl group
entry | molecule | TRPML1 ag | D2 potentiator | CtBP-E1A inh | TRPV1 potentiator | TRPML1 blocker | Six1-Eya2 inh
33 | CC(C)(C)NC(=O)c1cccc(NC(=O)CSc2ccc(Cl)cc2)c1 | 2.4 | -18 | -6 | 6 | 16 | 6
39 | C[C@@H](C(=O)N1CCN(C(=O)OC(C)(C)C)CC1)n1cc(CCC(=O)O)nn1 | -0.3 | -3 | -18 | -12 | 0 | 2

The listing continues:
entry | molecule | TRPML1 ag | D2 potentiator | CtBP-E1A inh | TRPV1 potentiator | TRPML1 blocker | Six1-Eya2 inh
49 | CC1CC1c1ccc(/C=C(\C#N)C(=O)Nc2ccc(Cl)cc2)o1 (centres undefined) | 28 | -35 | -2 | -15 | -8 | -2
50 | COc1ccc(Cl)cc1NC(=O)N1CCN(C2CCCCC2)CC1 | -0.3 | -16 | 35 | -1 | -5 | 21
51 | Cc1ccc(C(=O)N/C(=C\c2ccc(-c3ccccc3[N+](=O)[O-])o2)C(=O)NCCCN(C)C)cc1 | 0.0 | -17 | -24 | 0 | 9 | -8
52 | C(=N/Nc1cc(N2CCOCC2)nc(N2CCOCC2)n1)/c1ccccc1 | -0.3 | -9 | -4 | -18 | 2 | -6
53 | CCc1nnc(NC(=O)C2CCCN2C(=O)Nc2ccccc2)s1 (centres undefined) | 1.0 | -6 | -4 | 1 | -3 | 1
54 | NS(=O)(=O)c1ccc(CCNC(=O)CNCCc2ccccc2)cc1 | -0.3 | 3 | 8 | -11 | -7 | 8
55 | Cc1ccc(C(=O)OCC(=O)Nc2ccccc2C(F)(F)F)cc1S(=O)(=O)N1CCCCC1 | 1.1 | -8 | 7 | -11 | 2 | -3
56 | COCCNC(=O)/C(C#N)=C/c1ccc(OC(=O)c2cccs2)c(OC)c1 | 0.2 | 1 | -1 | 0 | 4 | -8
57 | NC(CCc1ccccc1)c1csc(Nc2nncc3ccccc23)n1 (centres undefined) | -0.2 | -6 | 0 | . | . | 9
58 | C=CCn1c(=O)c2c(nc3n2CCCN3CCc2ccccc2)n(C)c1=O | -1.5 | 1 | -30 | 3 | -2 | -20
